MT1-MMP act inh – blocks activation of human MT1-MMP | HT1080 RFP-PRO-GFP cells, GFP/RFP ratio fluorescence, overnight; percent of plate control window, DMSO zero | GFP/RFP ratio change, % at 20 µM | 360,000 compounds, 0.061% hits | AID 651647;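 active = GFP/RFP ratio change of at least 30% with cell ATP level not reduced by more than half and red fluorescence within 50% of control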; also: strong numbers were not always called active
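Material: RFP-PRO-GFP reporter HT1080 cells. Dosing: single-point 20 µM compound, 1% DMSO. Controls: DMSO and RFP-L50D-GFP cell wells. Timing: cells overnight before dosing, compound overnight, 37 °C, 5% CO2. Measure: GFP/RFP fluorescence ratio.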
UUG fidelity – modulators of start codon recognition fidelity in yeast. S. cerevisiae UUG-firefly luciferase reporter, luminescence/redox ratio. activity score, % at 18.7 µM. 350,000 compounds, 0.13% hits. AID 602363;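 active = replicate mean at a twofold rise or more, about +100% in these data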;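 also: firefly luciferase made from a UUG start codon reports start codon fidelity; reporter light over untreated wells divided by growth signal over untreated wells; some hits fall short of that in this replicate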
HIV Env fusion – inhibitors of HIV Env-mediated cell fusion. HeLa-JRFL Env/CEM21 cell fusion, luciferase. inhibition, % at 12.3 µM. 360,000 compounds, 1.1% hits. AID 651610;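 active = mean replicate inhibition score of at least 50 and every replicate individually at or above 50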;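 also: 0% = plate neutral controls and 100% = maraviroc near 300 nM; one replicate is shown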
Rce1 inh – yeast Ras-converting enzyme inhibition; AID 2563; yeast membranes, quenched prenylated peptide cleavage fluorescence; 290,000 compounds, 0.27% hits; calls only; Q03530;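 active = fall in fluorescence gain of 50% or more versus controls, with final raw signal at or below 3038400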;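 also: plate controls were neutral control wells for no effect and wells lacking membranes for full effect; tested at 10 µM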
PABP polyA inh – blocks human PABP binding to poly(A) RNA; P11940; fluorescence polarization; inhibition, % at 35 µM; 290,000 compounds, 1% hits; AID 2014;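 active = 50% or more with normal probe brightness, or confirmed in later tests; about a fifth of its hits are not listed in these tables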;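 also: calls also rest on retests at 20 µM and on dose response follow-up; controls were probe without protein and protein plus probe with vehicle; some compounds called inactive have numbers as strong as hits; many hits fall short of the cut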
Target sequence (P11940 whole entry, looked up): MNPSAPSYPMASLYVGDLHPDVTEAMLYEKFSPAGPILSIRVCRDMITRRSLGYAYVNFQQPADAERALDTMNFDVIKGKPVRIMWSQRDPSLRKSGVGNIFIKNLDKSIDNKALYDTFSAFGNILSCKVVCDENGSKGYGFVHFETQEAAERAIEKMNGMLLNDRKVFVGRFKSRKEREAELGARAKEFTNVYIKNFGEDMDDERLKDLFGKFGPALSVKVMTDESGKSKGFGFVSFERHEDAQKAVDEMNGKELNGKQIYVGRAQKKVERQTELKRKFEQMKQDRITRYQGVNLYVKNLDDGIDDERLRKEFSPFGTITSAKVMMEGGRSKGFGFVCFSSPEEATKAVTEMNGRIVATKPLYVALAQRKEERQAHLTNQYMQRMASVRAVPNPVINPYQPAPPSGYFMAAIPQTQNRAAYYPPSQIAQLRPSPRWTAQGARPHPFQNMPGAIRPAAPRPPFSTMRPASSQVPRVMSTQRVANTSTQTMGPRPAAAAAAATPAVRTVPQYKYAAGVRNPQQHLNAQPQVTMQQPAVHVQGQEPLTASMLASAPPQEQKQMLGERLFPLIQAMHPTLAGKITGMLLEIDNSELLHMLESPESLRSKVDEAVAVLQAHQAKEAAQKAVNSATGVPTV
eIF4H FP inh – inhibitors of RNA binding by human eIF4H. eIF4H fluorescence polarization binding assay. inhibition, % at 35 µM. 290,000 compounds, 0.94% hits;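 active = 50% or more with normal probe brightness, or confirmed in later tests; about a fifth of its hits are not listed in these tables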;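 also: calls also rest on retests at 20 µM and on dose response follow-up; 0% = protein and probe with vehicle and 100% = probe without protein; strong numbers were not always called active; many hits fall short of the cut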
CSC inhib – cancer stem cell inhibition. AID 2717. cancer stem cell-like cells viability, luminescence. inhibition, % at 7.5 µM. 300,000 compounds, 1.1% hits;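 active = mean at 75% or more and at least half the replicates too; tested in HMLE shEcad cells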;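 also: 0% = median of negative and 100% = median of positive control wells; the first replicate is given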
MT1-MMP act inh RFP – also measured in MT1-MMP act inh; calls as there; RFP signal change, %; measured here: RFP expression control read;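 0 = vehicle wells; hits needed this value within 50% of zero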
* marks the source's active call; other numbers are inactive results; i = inactive; / = no result given.

SMILES | MT1-MMP act inh | MT1-MMP act inh RFP | UUG fidelity | HIV Env fusion | Rce1 inh | PABP polyA inh | eIF4H FP inh | CSC inhib
COCCCNC(=O)CN1C(=O)CSc2ncccc21 | 0 | 2 | -7 | 14 | i | -6 | -1 | -10
CCOC(=O)C1CCCN(C(=O)COC(=O)c2cccs2)C1 (configuration not stated) | 2 | 2 | -17 | 7 | / | / | / | -10
CCc1cccc(NC(=O)CNC(=O)N2CC(=O)Nc3ccccc32)c1 | 2 | 4 | -8 | -7 | i | 4 | -1 | -12
O=C(c1ccccc1)c1ccc(OC(=O)C2CCCCC2)cc1 | -1 | 4 | -12 | -2 | i | 1 | 11 | -2
COc1ccc(C(=O)NCC(=O)NCC(=O)OCC(=O)c2cccs2)cc1 | -4 | 1 | -18 | -15 | i | 3 | -8 | -11
O=C(c1ccc(Cl)c(Cl)c1)N1CCCC1 | 2 | 2 | -14 | -49 | i | 4 | -3 | -2
Nn1c(-c2ccccc2)nc2cc(Cl)ccc2c1=O | -13 | 5 | 1 | 9 | / | 2 | -6 | -9
O=C(O)c1ccc(-c2nc(-c3ccccc3)cs2)cc1 | 3 | 9 | / | -41 | i | 6 | -4 | 7
COc1nc(N(C)S(=O)(=O)c2ccc(C)cc2)nc(C)c1Br | 1 | -11 | -16 | -6 | i | 1 | -8 | -13
CN(C)c1ccc(-c2cc(O)c3ncccc3c2)cc1 | 12 | 0 | -16 | 17 | / | / | / | 115*
CC(=O)Nc1ccc(N(C(=O)c2ccco2)C(C(=O)NC2CCCC2)c2cccs2)cc1 (configuration not stated) | 3 | 4 | -9 | 1 | i | -12 | -7 | -8
Cc1nc2ccccc2nc1OCc1cccc(Cl)c1 | 0 | 1 | -2 | 0 | i | -10 | -13 | 0
CCc1cc(=O)oc2cc(C)cc(OCC(=O)NCC3CCC(C(=O)O)CC3)c12 (configuration not stated) | 11 | 6 | 0 | / | i | 2 | 0 | 0
CCOc1cc(S(=O)(=O)Nc2ccccn2)ccc1F | 0 | 2 | -13 | / | i | 1 | -4 | -9
CCn1c(SCC(=O)NNC(=O)c2ccc(OC)cc2)nnc1C(C)C | 0 | 1 | -14 | 11 | i | -5 | 4 | -7
COc1ccc(CCNC(=O)C2CCN(c3ccc(N4CCOCC4)nn3)CC2)c(OC)c1 | 2 | 3 | -2 | -5 | i | 4 | -1 | -10
O=C(CC1C[C@H](C(=O)N2CCCCC2)[C@@]2(CCc3ccccc3)c3[nH]c4ccccc4c3CCN2C1=O)NCCc1ccccn1 (some centres not stated) | -17 | -20 | -5 | -35 | / | / | / | /
CCN(CC)C(=O)C1=C(C)N(Cc2ccc(F)cc2)C(=O)C(CC(=O)NCCCN(C)C)C1 (configuration not stated) | 2 | 3 | -6 | 12 | / | / | / | /
CCOc1ccc(/C=C/C(=O)c2c(O)cc(C)oc2=O)cc1 | -44 | 3 | -19 | -71 | i | -3 | 7 | 8
CCOCCCNC(=S)Nc1ccc2nc(N3CCOCC3)cc(C)c2c1 | 5 | 2 | -10 | -2 | i | 4 | 1 | 26
O=c1nc(NC2CCCC2)ccn1Cc1cccc(Br)c1 | 3 | 0 | 5 | / | i | -2 | -3 | /
OC1CCN(c2c3c(nc4cc(-c5ccc(F)cc5)nn24)CCC3)CC1 | -1 | -11 | -5 | 23 | i | 6 | 1 | -9
CCN1/C(=C2\OC(=S)N(C)C2=O)C=Cc2ccccc21 | -6 | 2 | -18 | -11 | i | -21 | 11 | 3
Cc1ccc(-c2ccc(CCC(=O)O)n2-c2ccc(C(=O)O)cc2)cc1 | -3 | 5 | -6 | 5 | i | 9 | 4 | 0
CNc1nc(Cl)c(SC)c(N2CCOCC2)n1 | -4 | 0 | / | -6 | i | -6 | -3 | -3

Other structures
SMILES | MT1-MMP act inh | MT1-MMP act inh RFP | UUG fidelity | HIV Env fusion | Rce1 inh | PABP polyA inh | eIF4H FP inh | CSC inhib
COc1cc(C(=O)Nc2ccc(S(=O)(=O)Nc3ncccn3)cc2)c([N+](=O)[O-])cc1OC | -2 | 0 | -8 | 12 | i | -8 | 2 | -16
CCOC(=O)c1c(C)[nH]c(C)c1C(=O)COC(=O)/C=C/c1cccc(F)c1 | 5 | 1 | -20 | -8 | i | -5 | -3 | 4
Cc1cc(C)cc(C(=O)NC(CC(N)=O)c2ccc(NC3CCCCCC3)c([N+](=O)[O-])c2)c1 (configuration not stated) | 15 | 6 | -14 | 13 | i | 1 | -6 | 9
FC(F)(F)c1cnc(N2CCSCC2)c(Cl)c1 | 2 | 3 | / | -22 | i | 2 | -2 | -2
OCC1(Cc2ccc(Cl)cc2)CCN(CCCc2ccccc2)CC1 | 0 | 1 | / | -17 | i | 0 | -13 | -11
CCOC(=O)C1CCCN(C(=O)c2ccc(CS(=O)(=O)Cc3ccccc3C)o2)C1 (configuration not stated) | 1 | -3 | 13 | 18 | i | -6 | 41 | -7
Cc1ccc(S(=O)(=O)Nc2cc(Cl)c(O)c3ncccc23)cc1 | -16 | -19 | -70 | 54 | i | -4 | 18 | 29
CCOC(=O)NC1(C(F)(F)F)C(=O)NC(C)=C1C(=O)OC (configuration not stated) | 1 | 0 | -7 | -21 | i | 2 | 0 | 2

3 entries out of the list, arranged by count of non-hydrogen atoms, lowest first:
SMILES | MT1-MMP act inh | MT1-MMP act inh RFP | UUG fidelity | HIV Env fusion | Rce1 inh | PABP polyA inh | eIF4H FP inh | CSC inhib
CN(C)c1ccc(-c2cc(O)c3ncccc3c2)cc1 | 12 | 0 | -16 | 17 | / | / | / | 115*
CCOC(=O)c1c(C)[nH]c(C)c1C(=O)COC(=O)/C=C/c1cccc(F)c1 | 5 | 1 | -20 | -8 | i | -5 | -3 | 4
COc1cc(C(=O)Nc2ccc(S(=O)(=O)Nc3ncccn3)cc2)c([N+](=O)[O-])cc1OC | -2 | 0 | -8 | 12 | i | -8 | 2 | -16

Full records from above. Screens in order: MT1-MMP act inh, MT1-MMP act inh RFP, UUG fidelity, HIV Env fusion, Rce1 inh, PABP polyA inh, eIF4H FP inh, CSC inhib
`CCOC(=O)NC1(C(F)(F)F)C(=O)NC(C)=C1C(=O)OC` (configuration not stated) is entered as 1, 0, -7, -21, i, 2, 0, 2
`OCC1(Cc2ccc(Cl)cc2)CCN(CCCc2ccccc2)CC1` is entered as 0, 1, /, -17, i, 0, -13, -11
`CCOC(=O)c1c(C)[nH]c(C)c1C(=O)COC(=O)/C=C/c1cccc(F)c1` is entered as 5, 1, -20, -8, i, -5, -3, 4
`Cc1ccc(S(=O)(=O)Nc2cc(Cl)c(O)c3ncccc23)cc1` is entered as -16, -19, -70, 54, i, -4, 18, 29
`Cc1cc(C)cc(C(=O)NC(CC(N)=O)c2ccc(NC3CCCCCC3)c([N+](=O)[O-])c2)c1` (configuration not stated) is entered as 15, 6, -14, 13, i, 1, -6, 9
